# Screening data deposited in PubChem by several laboratories.
# UUG fidelity = alters start codon recognition fidelity in yeast. S. cerevisiae UUG-firefly luciferase reporter, luminescence/redox ratio. activity score, % at 18.7 µM. 0.13% of 350,000 active;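 active means replicate mean at a twofold rise or more, about +100% in these data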;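 further: firefly luciferase made from a UUG start codon reports start codon fidelity; reporter light over untreated wells divided by growth signal over untreated wells; some hits fall short of that in this replicate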
# HIV Env fusion = HIV envelope-mediated fusion inhibition; HeLa-JRFL Env/CEM21 cell fusion, luciferase; 1.1% of 360,000 active; inhibition, % at 12.3 µM;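 active means mean replicate inhibition score of at least 50 and every replicate individually at or above 50; inconclusive means only one of the two criteria met; inactive means mean below 50 and not all replicates reaching 50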;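 further: 0% = plate neutral controls and 100% = maraviroc near 300 nM; one replicate is shown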
# PABP polyA inh = blocks human PABP binding to poly(A) RNA | P11940 | 1% of 290,000 active | inhibition, % at 35 µM | AID 2014 | fluorescence polarization;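 active means 50% or more with normal probe brightness, or confirmed in later tests; inconclusive means above 50% with abnormal brightness, or retests that disagree; inactive means below 50% or failed in later tests; about a fifth of its hits are not listed in these tables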;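 further: calls also rest on retests at 20 µM and on dose response follow-up; controls were probe without protein and protein plus probe with vehicle; some compounds called inactive have numbers as strong as hits; many hits fall short of the cut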
# Rce1 inh = yeast Ras-converting enzyme inhibition; 0.27% of 290,000 active; calls only; AID 2563; yeast membranes, quenched prenylated peptide cleavage fluorescence; Q03530;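 active means fall in fluorescence gain of 50% or more versus controls, with final raw signal at or below 3038400; inconclusive means same 50% fall but final raw signal above 3038400; inactive means fall in fluorescence gain under 50%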;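 further: plate controls were neutral control wells for no effect and wells lacking membranes for full effect; tested at 10 µM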
# Target sequence (Q03530 whole entry, looked up): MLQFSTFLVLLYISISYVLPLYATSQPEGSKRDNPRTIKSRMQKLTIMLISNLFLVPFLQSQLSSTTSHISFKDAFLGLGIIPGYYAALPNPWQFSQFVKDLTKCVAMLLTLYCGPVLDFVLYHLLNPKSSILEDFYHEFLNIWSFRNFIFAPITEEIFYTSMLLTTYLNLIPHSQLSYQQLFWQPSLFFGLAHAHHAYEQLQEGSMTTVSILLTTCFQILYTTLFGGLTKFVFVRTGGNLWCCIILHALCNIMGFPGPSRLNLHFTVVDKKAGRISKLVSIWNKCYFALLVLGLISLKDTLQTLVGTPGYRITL
# MT1-MMP act inh = inhibitors of human MT1-MMP activation; P50281; HT1080 RFP-PRO-GFP cells, GFP/RFP ratio fluorescence, overnight; percent of plate control window, DMSO zero; GFP/RFP ratio change, % at 20 µM; 0.061% of 360,000 active;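 active means GFP/RFP ratio change of at least 30% with cell ATP level not reduced by more than half and red fluorescence within 50% of control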; further: strong numbers were not always called active
#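 system = RFP-PRO-GFP reporter HT1080 cells | dosing = 20 µM single dose, 1% DMSO | timing = overnight cell settling, then overnight compound exposure, 37 °C, 5% CO2 | read-out basis = GFP/RFP fluorescence ratio | controls = DMSO and RFP-L50D-GFP cell wells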
# CSC inhib = cancer stem cell inhibition; cancer stem cell-like cells viability, luminescence; inhibition, % at 7.5 µM; 1.1% of 300,000 active;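 active means mean at 75% or more and at least half the replicates too; inconclusive means mean and replicates disagree; tested in HMLE shEcad cells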;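 further: 0% = median of negative and 100% = median of positive control wells; the first replicate is given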
# eIF4H inh = inhibitors of RNA binding by human eIF4H. AID 2012. Q15056. 0.94% of 290,000 active. inhibition, % at 35 µM. eIF4H fluorescence polarization binding assay;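 active means 50% or more with normal probe brightness, or confirmed in later tests; inconclusive means above 50% with abnormal brightness, or retests that disagree; inactive means below 50% or failed in later tests; about a fifth of its hits are not listed in these tables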;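 further: calls also rest on retests at 20 µM and on dose response follow-up; 0% = protein and probe with vehicle and 100% = probe without protein; strong numbers were not always called active; many hits fall short of the cut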
# MT1-MMP act inh RFP = further read-out of MT1-MMP act inh, marked with its call; RFP signal change, %; measured here: RFP expression control read;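 0 = vehicle wells; hits needed this value within 50% of zero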
# * hit, by the source's call; i = inactive; ? = inconclusive; · = not tested or not shown. Some of the compounds tested; count on the stated rates, not on these rows.
SMILES,UUG fidelity,HIV Env fusion,PABP polyA inh,Rce1 inh,MT1-MMP act inh,MT1-MMP act inh RFP,CSC inhib,eIF4H inh
CC(=O)Cn1c(CN2CC(C)CC(C)C2)nc2c1c(=O)n(C)c(=O)n2C (configuration not stated),-35,8,3,i,13,5,-7,-2
Cc1ccc(N(CC(=O)NCc2ccco2)C(=O)CCC(=O)Nc2nccs2)cc1,-6,13,-1,i,-7,-9,0,-10
O=C(NCC(=O)N1CCCCCCC1)c1cccc([N+](=O)[O-])c1,6,-6,·,·,4,1,·,·
Cc1cc(C(F)F)n2nc(C(=O)NCc3ccccc3F)nc2n1,-6,·,-6,i,0,7,-17,4
CCCCNCCOCCOc1ccc(F)cc1,-15,·,5,i,-3,2,·,1
CCOC(=O)c1ccc(NC(=S)NN2CCOCC2)cc1,-25,2,-9,i,-1,2,5,-10
O=C(COC(=O)CN1C(=O)C2CCCCC2C1=O)NC1CCS(=O)(=O)C1 (configuration not stated),·,21,-3,i,-4,4,1,-10
COc1ccccc1C(=O)COC(=O)CNS(=O)(=O)c1ccc(NC(C)=O)cc1,-4,-8,-12,i,1,7,·,-10
NS(=O)(=O)c1ccc(CCNC(=O)Cc2ccc(S(=O)(=O)N3CCOCC3)s2)cc1,-3,-12,·,i,-1,3,-6,·
CC(C)(C)NC(=O)NC(=O)CN1CCN(c2ccccc2)CC1,·,3,5,i,2,0,-15,-4
O=C(C1CN(C(=O)c2cc3ccccc3o2)c2ccccc2O1)N1CCCCC1 (configuration not stated),-20,11,·,·,0,0,·,·
COc1nc(-c2ccccc2)cc(-c2ccc(OC)c(OC)c2)n1,-13,5,4,i,-9,-7,27,0
O=C(O)/C=C/C(=O)Nc1ccc2c(c1)C(=O)c1ccccc1C2=O,·,-18,21,i,2,5,-6,6
Fc1ccc(C(CNC(=S)NC2CCCCC2)N2CCOCC2)cc1 (configuration not stated),·,0,-9,i,4,-4,-12,5
Cc1cc(N2CC(C(=O)O)CC2=O)ccc1Br (configuration not stated),-3,·,0,i,7,5,12,1
CCCCn1c(SCC(=O)c2ccccc2)nc2ccsc2c1=O,·,16,-5,i,-1,-20,13,-4
Cn1/c(=N/N=C/c2ccc(Cl)c([N+](=O)[O-])c2)sc2ccccc21,-10,-104,0,i,3,-4,-7,7
Brc1ccc(-c2noc(COc3ccc4ccccc4c3)n2)o1,-14,-1,-7,i,-1,3,6,-2
Cc1ccc(CSc2nnc(-c3ccc4c(c3)OCO4)o2)cc1,-2,·,2,i,5,2,-4,-4
Cn1c(=O)cc(Nc2ccc(Cl)cc2)[nH]c1=O,-3,-6,1,i,4,4,-3,1
COc1ccc(OC)c(NC(=O)CCCNC(=O)c2ccc(Cl)cc2)c1,-9,8,5,i,-6,-1,-14,-8
O=C(CCNS(=O)(=O)c1ccccc1C(F)(F)F)NCCCSc1ccccc1,22,-239,9,i,4,2,6,-1
Cc1ccc(NC(=O)CCCCCC2NC(=O)NC2C)cc1 (configuration not stated),-11,·,1,i,0,1,2,-10
CCN(CC(=O)Nc1ccc(NC(C)=O)cc1)C(=O)C1CC(=O)N(Cc2ccc(C)cc2)C1 (configuration not stated),0,-13,·,i,5,4,2,·
COc1cc(C(=O)O)ccc1OC(C)=O,-29,·,1,i,3,3,-10,-11

# Filtered by structure, the compounds so far with four or more nitrogen atoms (6)
SMILES,UUG fidelity,HIV Env fusion,PABP polyA inh,Rce1 inh,MT1-MMP act inh,MT1-MMP act inh RFP,CSC inhib,eIF4H inh
CC(=O)Cn1c(CN2CC(C)CC(C)C2)nc2c1c(=O)n(C)c(=O)n2C (configuration not stated),-35,8,3,i,13,5,-7,-2
Cc1ccc(N(CC(=O)NCc2ccco2)C(=O)CCC(=O)Nc2nccs2)cc1,-6,13,-1,i,-7,-9,0,-10
Cc1cc(C(F)F)n2nc(C(=O)NCc3ccccc3F)nc2n1,-6,·,-6,i,0,7,-17,4
CC(C)(C)NC(=O)NC(=O)CN1CCN(c2ccccc2)CC1,·,3,5,i,2,0,-15,-4
Cn1/c(=N/N=C/c2ccc(Cl)c([N+](=O)[O-])c2)sc2ccccc21,-10,-104,0,i,3,-4,-7,7
CCN(CC(=O)Nc1ccc(NC(C)=O)cc1)C(=O)C1CC(=O)N(Cc2ccc(C)cc2)C1 (configuration not stated),0,-13,·,i,5,4,2,·

# Continued:
SMILES,UUG fidelity,HIV Env fusion,PABP polyA inh,Rce1 inh,MT1-MMP act inh,MT1-MMP act inh RFP,CSC inhib,eIF4H inh
COc1ccc(CC(=O)Nc2ccc(S(=O)(=O)Nc3cc(C)on3)cc2)cc1,1,16,9,i,1,0,1,-10
CC(C(=O)Nc1cc([N+](=O)[O-])ccc1Cl)N1CCN(c2ccc(O)cc2)CC1 (configuration not stated),·,35,0,i,-5,-2,10,31
Cc1nnc(SCC(=O)NC2CCCCC2)n1C1CCCCC1,-21,·,-12,i,0,7,-6,-3
Cc1cccc(-c2noc(-c3ccccc3C(=O)NCc3ccco3)n2)c1,-5,-1,0,i,-6,-3,3,-1
CC1(C)C(c2ccc(Cl)cc2)=[N+]([O-])C2(CCCC/C2=N\O)N1O (configuration not stated),-24,·,9,i,1,4,7,-3
Cc1ccc(NC(=O)c2nc[nH]c2C(=O)Nc2ccccc2F)cc1,-8,-12,·,·,6,9,·,·
Cc1cccc(CN2CCC(Oc3ccc(C(=O)N4CCCC4)cc3)CC2)n1,-11,-12,7,i,-4,1,2,2
COc1ccc(C(=O)O)cc1N1C(=O)Nc2ccccc2N1O,·,3,29,i,3,5,-10,0
COc1ccc(N2CCN(S(=O)(=O)CCNC(=O)Cc3ccc([N+](=O)[O-])cc3)CC2)cc1,-3,2,3,i,-1,-7,4,-2
CCOC(=O)N1CCC(N2CCN(S(=O)(=O)c3ccc4ccccc4c3)CC2)CC1,4,-40,4,i,4,-10,-2,-2
CCCCc1cc(=O)oc2c3c(cc(OCC(=O)N4CCC[C@H]4C(=O)O)c12)OC(C)(C)CC3,-1,·,5,i,7,8,-5,-1
COC(=O)[C@H](Cc1ccccc1)NC(=O)N1CCCCCC1,-9,7,7,i,-1,1,-11,3
CN(NC(=O)c1ccccc1F)c1nc(C(F)(F)F)nc2ccccc12,·,-346,0,i,-2,-13,44,-10
COc1ccccc1OC(=O)Nc1ccc(Cl)cc1,-11,-5,0,i,-2,-3,32,-8
Cc1ccc(C(=O)O)cc1NC(=O)c1ccc2c(c1)C(=O)N(c1ccc([N+](=O)[O-])cc1)C2=O,-4,-22,4,i,0,2,-4,5
O=C(CN1C2=NCCCN2c2ccccc21)c1ccc(Cl)cc1Cl,·,1,-2,i,-2,2,12,-1
C/C(=N\NC(=O)c1nnn(-c2nonc2N)c1CSc1ccc(C)cc1)c1cccs1,-3,-8,·,·,4,2,·,·
NC(=O)COC(=O)c1cc(S(=O)(=O)N2CCOCC2)ccc1N1CCCCC1,-2,·,-1,i,2,1,-2,-6
CCOC(=O)/C(C(N)=NCc1ccco1)=C(/O)c1ccccc1,·,-24,0,i,13,13,-5,-7
Cc1ccc(-c2noc(CSc3nnc(Cc4ccccc4)n3-c3cccc(C)c3)n2)cc1,-23,·,0,i,-2,-5,-12,9
COc1cc(NCCCNC(C)C)c2nccc(C)c2c1,-7,0,·,·,5,1,·,·
C/C=C/c1ccc(OCC(=O)NCc2ccccc2OC)c(OC)c1,·,26,12,i,4,4,-3,-2
CCN1CCN(Cc2c(C)[nH]c3ccc(OC)cc3c2=O)CC1,-9,·,-10,i,5,0,-24,-3
Cc1ccc(NC(=O)CN2CCN(S(=O)(=O)c3ccc4c(c3)OCCO4)CC2)c(C)c1,6,?,·,·,0,0,·,·
O=C(O)/C=C/c1ccc(O)c(O)c1,-4,·,-6,i,-2,3,-4,-11

# An excerpt from above in order of number of heavy atoms, lowest first.
SMILES,UUG fidelity,HIV Env fusion,PABP polyA inh,Rce1 inh,MT1-MMP act inh,MT1-MMP act inh RFP,CSC inhib,eIF4H inh
COC(=O)[C@H](Cc1ccccc1)NC(=O)N1CCCCCC1,-9,7,7,i,-1,1,-11,3
Cc1cccc(-c2noc(-c3ccccc3C(=O)NCc3ccco3)n2)c1,-5,-1,0,i,-6,-3,3,-1
Cc1ccc(C(=O)O)cc1NC(=O)c1ccc2c(c1)C(=O)N(c1ccc([N+](=O)[O-])cc1)C2=O,-4,-22,4,i,0,2,-4,5

# One compound at a time (already shown). Screens in order: UUG fidelity	HIV Env fusion	PABP polyA inh	Rce1 inh	MT1-MMP act inh	MT1-MMP act inh RFP	CSC inhib	eIF4H inh
# O=C(O)/C=C/c1ccc(O)c(O)c1 is listed with -4	·	-6	i	-2	3	-4	-11
# Cc1ccc(C(=O)O)cc1NC(=O)c1ccc2c(c1)C(=O)N(c1ccc([N+](=O)[O-])cc1)C2=O is listed with -4	-22	4	i	0	2	-4	5
# Cc1cccc(-c2noc(-c3ccccc3C(=O)NCc3ccco3)n2)c1 is listed with -5	-1	0	i	-6	-3	3	-1
# CCOC(=O)/C(C(N)=NCc1ccco1)=C(/O)c1ccccc1 is listed with ·	-24	0	i	13	13	-5	-7
# COc1cc(NCCCNC(C)C)c2nccc(C)c2c1 is listed with -7	0	·	·	5	1	·	·

# Next part
SMILES,UUG fidelity,HIV Env fusion,PABP polyA inh,Rce1 inh,MT1-MMP act inh,MT1-MMP act inh RFP,CSC inhib,eIF4H inh
COc1ccc(CC(=O)Nc2ccccc2N2CCCCC2)cc1OC,-9,2,3,i,0,-4,-8,-4
Cc1cc(C(=O)NC2CCCN(Cc3ccc(Cl)cc3)C2)c(C)o1 (configuration not stated),2,15,6,i,-3,2,-6,5
O=C(O)c1ccc2ncc(NC(=O)c3ccc(F)cc3)c(=O)n2c1,-14,-5,0,i,0,4,-10,-1
COc1cc(C(=O)OCc2csc(CC(=O)Nc3ccccc3C)n2)ccc1OCC(C)C,-17,4,·,·,-3,-5,·,·
COc1ccc(S(=O)(=O)NC2CCCC2)cc1Br,6,8,-3,i,4,5,0,-3
O=C(CN(Cc1ccco1)C(=O)CNS(=O)(=O)c1ccc(F)cc1)NCc1ccco1,-4,2,7,i,2,3,-3,-1
COc1ccccc1N1CCN(CCCCOc2ccc(F)cc2)CC1,-3,-54,19,i,-3,-7,20,-6
CCN(c1ccccc1)S(=O)(=O)c1cccc(C(=O)O)c1,-4,·,-3,i,0,2,-16,-5
O=C(NCCC1=CCCCC1)C(=O)NCc1ccncc1,·,6,5,i,2,-1,-7,-5
COc1cccc(NC(=O)c2nn(-c3ccc(OC)cc3OC)c(=O)c3ccccc23)c1,·,-61,-4,i,7,1,0,1
